Shh pathway inh – blocks Sonic Hedgehog signaling | Shh-LIGHT2 Gli-luciferase reporter, 30 h | 22,000 tested, 2.1% active | AID 2313 | inhibition, % (no concentration beside the values);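 active = replicate mean of 65% or more; inconclusive = mean lower but half the replicates past it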;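 also: pathway switched on by Shh-conditioned medium diluted 1 in 25 in low serum; 100 nL library stock added to about 40 µL; 0% = median of neutral wells and 100% = positive control level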
PD-1 reversal – reversal of PD-1 mediated T-cell inhibition; primary human CD4 T cells, PD-L1 beads, CellTiter-Glo 96 h; activation, % (test concentration not listed); 29,000 tested, under 10 active; AID 2316;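 active = replicate mean of 50% or more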;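 also: 0% = median vehicle wells and 100% = positive control; 100 nL library stock added to about 50 µL; numbers are from one replicate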
MITF inhib – MITF inhibition | 37,000 tested, 0.28% active | inhibition, % (test concentration not listed) | AID 2240 | TRPM1 promoter luciferase, luminescence, 24 h;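 active = most replicates at 85% or more, or half of them and the mean; inconclusive = half reach 85% but not the mean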;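 also: human melanocyte line stably carrying TRPM1 promoter luciferase reporter; 0% = vehicle wells and 100% = a positive control; the first replicate is given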
YB-1 expression – YB-1 expression inhibition | U2OS, qRT-PCR YB-1 vs CDIP delta delta Cp, 16 h; active compounds read high; zero = DMSO, each unit about twofold | delta delta Cp (YB-1 minus CDIP) (no concentration beside the values) | 30,000 tested, 0.37% active;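 active = delta delta Cp rounded down to an integer at or above 3, about 3 SD of DMSO wells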;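 also: higher means less YB-1 transcript or more CDIP transcript relative to DMSO; stock transfer was 100 nL into about 100 µL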
* hit, by the source's call; u = inconclusive; x = no result given; & = joins results of further samples. Not all compounds are listed; the hit share may differ from the screen's.

Field names: A = Shh pathway inh; B = PD-1 reversal; C = MITF inhib; D = YB-1 expression
(1) COc1cc2ncnc(Nc3cccc(Cl)c3)c2cc1OC
  A: -9&-45 | B: 0.8&0.5 | C: 52&22 | D: 0.24&0.06

(2) O=c1cc(-c2ccc(O)cc2)oc2cc(OC3OC(CO)C(O)C(O)C3OC3OCC(O)(CO)C3O)cc(O)c12 (stereo unspecified)
  A: 2 | B: 0.1 | C: -41 | D: -0.35

(3) CC(=O)O[C@]1(C(C)=O)CC[C@H]2[C@@H]3C=C(Cl)C4=CC(=O)C5CC5[C@]4(C)[C@H]3CC[C@@]21C (stereo partly specified)
  A: 12 | B: x | C: -11 | D: -0.039

(4) COc1ccc(C[C@H]2COC(=O)[C@@H]2Cc2ccc(O[C@@H]3O[C@H](CO)[C@@H](O)[C@H](O)[C@H]3O)c(OC)c2)cc1OC
  A: -17 | B: -1.1 | C: 42 | D: -0.52

(5) N#Cc1ccc(C(c2ccc(C#N)cc2)n2cncn2)cc1
  A: -23 | B: x | C: -1 | D: -0.0059

(6) CC1Cc2ccccc2N1NC(=O)c1ccc(Cl)c(S(N)(=O)=O)c1 (stereo unspecified)
  A: -72 | B: x | C: -5 | D: 0.013

(7) CC(C)=CCOc1c2ccoc2cc2oc(=O)ccc12
  A: -24 | B: -0.6 | C: -22 | D: -0.35

(8) CCC(NC(C)C)C(O)c1ccc(O)c2[nH]c(=O)ccc12 (stereo unspecified)
  A: -27 | B: x | C: -17 | D: 0.28

(9) CCCCNc1ccc(C(=O)OCCN(C)C)cc1
  A: 12 | B: 1.7 | C: 6 | D: 0.45

(10) O=C(O)CCC(=O)c1ccc(-c2ccccc2)cc1
  A: -102 | B: x | C: -30 | D: -0.11

(11) C/C=C/C(=O)N(CC)c1ccccc1C
  A: -36 | B: 2.8 | C: 4 | D: 0.29

(12) CCOC(=O)[C@H](CCc1ccccc1)N[C@@H](C)C(=O)N1Cc2ccccc2C[C@H]1C(=O)O
  A: -71 | B: 2.0 | C: -3 | D: 0.08

(13) COc1ccc(C2CNC(=O)C2)cc1OC1CCCC1 (stereo unspecified)
  A: 38 | B: 3.2 | C: -8 | D: 0.14

(14) CCN(CC)CCOC(=O)c1ccc(N)cc1
  A: -13 | B: x | C: -11 | D: 0.068

(15) CCc1ccc(CCOc2ccc(CC3SC(=O)NC3=O)cc2)nc1 (stereo unspecified)
  A: u | B: x | C: 9 | D: 0.25

(16) CCn1cc(C(=O)O)c(=O)c2cnc(N3CCNCC3)nc21
  A: u | B: 4.3 | C: 0 | D: 0.86

(17) O=C(O)c1cccnc1Nc1cccc(C(F)(F)F)c1
  A: 4 | B: -0.7 | C: -5 | D: -0.24

(18) CC(=O)CCCCn1c(=O)c2c(ncn2C)n(C)c1=O
  A: 22 | B: x | C: -12 | D: -0.4

(19) CN(C)CCCC1(c2ccc(F)cc2)OCc2cc(C#N)ccc21 (stereo unspecified)
  A: 1 | B: 1.8 | C: -4 | D: -0.55

(20) Cc1ccc(N(CC2=NCCN2)c2cccc(O)c2)cc1
  A: 25&-40 | B: x | C: -11&11 | D: 0.44&-0.087

(21) C[N+]1(C)CCC(=C(c2ccccc2)c2ccccc2)CC1
  A: 3 | B: 1.3 | C: 0 | D: 0.51

(22) Oc1ccc(C2CNCCc3c2cc(O)c(O)c3Cl)cc1 (stereo unspecified)
  A: 25 | B: x | C: -6 | D: -0.27

Three compounds out of the list, sorted by number of heavy atoms, descending.
Field names: A = Shh pathway inh; B = PD-1 reversal; C = MITF inhib; D = YB-1 expression
(12) CCOC(=O)[C@H](CCc1ccccc1)N[C@@H](C)C(=O)N1Cc2ccccc2C[C@H]1C(=O)O
  A: -71 | B: 2.0 | C: -3 | D: 0.08

(5) N#Cc1ccc(C(c2ccc(C#N)cc2)n2cncn2)cc1
  A: -23 | B: x | C: -1 | D: -0.0059

(9) CCCCNc1ccc(C(=O)OCCN(C)C)cc1
  A: 12 | B: 1.7 | C: 6 | D: 0.45

Rewritten tab-delimited: 3 of the compounds above.
No.	canonical_smiles	Shh pathway inh	PD-1 reversal	MITF inhib	YB-1 expression
2	O=c1cc(-c2ccc(O)cc2)oc2cc(OC3OC(CO)C(O)C(O)C3OC3OCC(O)(CO)C3O)cc(O)c12 (stereo unspecified)	2	0.1	-41	-0.35
1	COc1cc2ncnc(Nc3cccc(Cl)c3)c2cc1OC	-9&-45	0.8&0.5	52&22	0.24&0.06
8	CCC(NC(C)C)C(O)c1ccc(O)c2[nH]c(=O)ccc12 (stereo unspecified)	-27	x	-17	0.28

Reformatted: 2 of the compounds above.
Sequence of screens – Shh pathway inh, PD-1 reversal, MITF inhib, YB-1 expression
(19) CN(C)CCCC1(c2ccc(F)cc2)OCc2cc(C#N)ccc21 (stereo unspecified)
→ 1, 1.8, -4, -0.55
(20) Cc1ccc(N(CC2=NCCN2)c2cccc(O)c2)cc1
→ 25&-40, x, -11&11, 0.44&-0.087
